Source: PubChem BioAssay
D2 PAM – Beta-Arrestin HTS for Positive Allosteric Modulators of the Human D2 Dopamine Receptor: Potentiators | DiscoveRx D2 beta-arrestin cells, luminescence, 90 min; 100% = 57 uM dopamine signal | potentiation, % (no concentration beside the values) | 360,000 tested, 0.23% active | D(2) dopamine receptor (Homo sapiens), P14416; active = potentiation of 50% or more; inconclusive = 30% to 50%; inactive = 30% or less;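 further: compound concentration not given in the record; tested on top of an EC20 dose of dopamine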
Target sequence (P14416 whole entry, looked up): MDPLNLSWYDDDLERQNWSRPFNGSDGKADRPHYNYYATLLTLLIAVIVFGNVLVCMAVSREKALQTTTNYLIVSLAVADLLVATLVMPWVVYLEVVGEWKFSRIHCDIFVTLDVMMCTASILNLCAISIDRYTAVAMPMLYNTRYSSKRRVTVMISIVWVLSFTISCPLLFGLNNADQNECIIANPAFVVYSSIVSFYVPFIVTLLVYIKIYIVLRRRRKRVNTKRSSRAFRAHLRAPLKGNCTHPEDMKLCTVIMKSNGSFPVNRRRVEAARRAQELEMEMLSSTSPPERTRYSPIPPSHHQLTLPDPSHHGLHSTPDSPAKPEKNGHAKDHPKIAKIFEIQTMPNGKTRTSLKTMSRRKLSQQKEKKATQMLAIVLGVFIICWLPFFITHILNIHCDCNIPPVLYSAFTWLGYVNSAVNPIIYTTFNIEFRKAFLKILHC
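D2 cells co-treated with compound plus 50 nM dopamine (EC20) for 90 min at 37 deg C to detect potentiation. Beta-arrestin recruitment was read as enzyme-fragment luminescence after 1 h at ambient temperature. Full response was set by 57 uM dopamine.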
CtBP-E1A inh – qHTS Assay for Inhibitors of the CtBP/E1A Interaction. CtBP / adenovirus E1A interaction (AlphaScreen). AlphaScreen GST-E1A/His-CtBP binding, 1536-well; active compounds read low; control for the full effect not named in the record. activity change, % (test concentration not listed). 340,000 tested, 0.49% active. AID 651724, 2012; in the data active means activity change below about -65%; inconclusive means about -30% to -65%; inactive means above about -30%; further: on the % scale 0 is the no-effect control and ±100 the full control effect
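Steps: dispense buffer (Tris pH 8.0, NaCl 300 mM, TCEP 1 mM, BSA, Tween 20); add 5X protein mix (GST-E1A, His-CtBP, 125 nM each); pin 23 nL compound; 2 h at 37 °C, dark; add 5X beads (50 ug/mL); 1 h; read.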
Six1-Eya2 blk – qHTS Assay for Inhibitors of the Six1/Eya2 Interaction; AID 651725, 2012; 360,000 tested, 0.56% active; AlphaScreen GST-Six1/His-Eya2 binding, biochemical; active compounds read low; control for the full effect not named in the record; Homeobox protein SIX1 (Homo sapiens) + Protein phosphatase EYA2 (Homo sapiens), …; activity change, % (concentration not given with the values); in the data active = activity change below about -65%; inconclusive = about -30% to -65%; inactive = above about -30%; further: on the % scale 0 is the no-effect control and ±100 the full control effect
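AlphaScreen with GST-Six1 and His-Eya2 (5X mix: 250 nM and 500 nM), glutathione donor and nickel acceptor beads; buffer 50 mM Tris pH 8.0, 300 mM NaCl, 1 mM TCEP; 1 h at 37 C in the dark.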
gsp ag – qHTS for Agonist of gsp, the Etiologic Mutation Responsible for Fibrous Dysplasia/McCune-Albright Syndrome: qHTS; Potency, µM (series often up to 76.9 µM), for the others: top-dose activation (cAMP increase), usual class: activators; 340,000 tested, 0.13% active; gsp mutant cells, cAMP HTRF, 30 min; control for the full effect not named in the record; active = well fitted activation curve with a large enough effect; inconclusive = small, poorly fitted or top-dose-only effect, or another doubt; inactive = no such curve, though single readings can be large or run the other way; cell line not stated here;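 further: phosphodiesterase inhibitor Ro 20-1724 added with compounds to block cAMP breakdown; potency means the concentration at half of the fitted maximal effect; nearly all actives have a fitted effect of over 60% in size; about a fifth of the inactives were tested at one dose only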
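Cells in DMEM/10% FBS with G418 were pretreated with compounds in DMSO plus […] (300 uM stock) for 30 min at 37C. cAMP was measured by HTRF (cAMP-d2 plus anti-cAMP antibody-K) after 30 min at room temperature.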
gsp antag – qHTS for Antagonists of gsp, the Etiologic Mutation Responsible for Fibrous Dysplasia/McCune-Albright Syndrome: qHTS; gsp-mutant cells, cAMP HTRF, 30 min; control for the full effect not named in the record; Potency, µM (doses to about 76.9 µM), for the others: at the top dose activity change, negative = inhibition, hits mostly inhibitors; 340,000 tested, 0.4% active; active = falling curve of any shape with a large fitted effect; inconclusive = falling curve, mostly with a smaller effect; inactive = flat or rising curve; cell line not stated here;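 further: intracellular cAMP measured with PDE inhibitor Ro 20-1724 present during compound exposure; potency means the concentration at half of the fitted maximal effect; on the % scale 0 is the no-effect control and ±100 the full control effect; nearly all actives have a fitted effect of over 65% in size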
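HTRF cAMP read-out (cAMP-d2 plus anti-cAMP antibody-K in lysis buffer, 30 min RT). Before lysis, cells are exposed to compounds with […] for 30 min at 37C in DPBS containing Ca/Mg, BSA and Tween 20.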
D2 ag – Beta-Arrestin HTS for Positive Allosteric Modulators of the Human D2 Dopamine Receptor: Agonists; 360,000 tested, 0.084% active; DiscoveRx PathHunter D2 beta-arrestin, luminescence, 90 min; 100% = 57 uM dopamine signal; activation, % (concentration not given with the values); in the data active = activation above about 40%; inconclusive = about 15% to 40%; inactive = below about 15%; further: compound concentration not given in the record; the text of the record calls up to 30% inactive
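DiscoveRx PathHunter D2 beta-arrestin cells (2,100/well) attached overnight, then compound-stimulated 90 min at 37 C in HBSS/10 mM HEPES/0.1% Tween-20 buffer; beta-galactosidase complementation read by luminescence after 1 h at ambient temperature. Dopamine 57 uM final (EC100) as control.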
Starred values were filed as active, the others as inactive; ? = inconclusive; . = not tested or not shown; [ ] = another dose, or the depositor's remark. Rows were taken by chance, and some 1.4% of all compounds hit somewhere here.

SMILES	D2 PAM	CtBP-E1A inh	Six1-Eya2 blk	gsp ag	gsp antag	D2 ag
Nc1ccn([C@@H]2O[C@H](CN=C3NS(=O)(=O)c4ccccc43)[C@@H](O)[C@H]2O)c(=O)n1	6	1	4	?	.	-0.9
COc1ccc2nc(CNC(=O)C3CCC(=O)N(CCc4ccccc4)C3)[nH]c2c1 (configuration not stated)	3	0	1	5%[15.4 µM]	4%	1.6
O=C(NCc1ccco1)C(c1cccs1)N(C(=O)C1COc2ccccc2O1)c1cccc(O)c1 (configuration not stated)	-5	6	-7	-19%	12%	-5.7
CCn1c(SCC(=O)NC(C)(C)C)nnc1-c1ccccn1	11	-4	1	28%	5%	3.7
CCc1nnc(NC(=O)CSc2sc3c(O)cc(=O)[nH]c3c2C#N)s1	-3	?	?	?	-5%	-1.5
O=c1oc2ccccc2c(NCc2ccc(Cl)cc2)c1[N+](=O)[O-]	-16	5	-14	12%	?	-3.3
CC(C)(C)[C@@H]1COC(=O)[C@H](Cc2ccc(F)cc2)CC/C=C\C[C@@H](CC(=O)N(CCO)Cc2ccccc2)C(=O)N1	0	3	-1	6%	-14%	0.5
CC[n+]1c(C)sc2c3ccsc3ccc21	-4	0	-2	2%	7%	-1.6
COc1cccc2[nH]c3ccccc3c(=O)c12	28	.	0	-141%[inhibitor]	0%	3.9
C(=N\N1CCN(C(c2ccccc2)c2ccccc2)CC1)/c1ccc2c(c1)OCO2	-12	4	0	-15%[15.4 µM]	-10%	-1.8
O=C(Nc1ccc(N2CCOCC2)cc1)c1ccc(Cl)c(S(=O)(=O)N2CCCCC2)c1	-7	.	-2	29%	2%	-2.7
COc1ccc(C(CNC(=O)COc2ccccc2C)N2CCOCC2)cc1 (configuration not stated)	-17	2	-5	5%	10%	-2.6
C=C(C)C1CC=C(CN2CCC(C(=O)OCC)CC2)CC1 (configuration not stated)	-4	-7	-3	-15%	9%	10
CC1CC(NS(=O)(=O)c2cccs2)CC(C)(C)C1 (configuration not stated)	4	4	6	23%	-9%	-0.2
COCCN(CCOC)C(=O)c1cc2sc3ccccc3c2s1	-3	9	7	?	-2%	0.2
Cc1nn(-c2ccccc2)c(Cl)c1/C=N/Nc1nnc(C)c(=O)[nH]1	-1	.	-19	-14%[15.4 µM]	-13%	3.3
CCc1ccc(N2CC(C(=O)NCc3ccco3)CC2=O)cc1 (configuration not stated)	-19	-1	0	8%	-2%	-2.1
O=C(COc1nsnc1N1CCOCC1)Nc1ccc([N+](=O)[O-])cc1	-6	0	3	7%	1%	-4.9
CCC(=O)N1CCC1(C)C(=O)Nc1cccc2cccnc12 (configuration not stated)	0	8	9	.	.	-3.5
COc1ccc(S(=O)(=O)N2CCOCC2)cc1C(=O)N(C)CCOc1ccc(Cl)cc1	-3	.	1	-18%	-19%	-2.5
COc1ccc(NC(=O)CSc2nnnn2Cc2ccccc2)cc1	-3	.	-5	-3%	-1%	4.1
Cc1ccc(/C=N/Nc2cc(C)nc(N3CCOCC3)n2)cc1	-13	5	3	9%[15.4 µM]	-20%	-1.9
S=C(N/N=C/c1ccccc1)N1CCOCC1	-18	-12	-13	3%	16%	-0.9
COc1cccc(C2C3=C(CC(C)(C)CC3=O)Nc3n[nH]c(C)c32)c1 (configuration not stated)	-10	.	-5	-60%[inhibitor]	-3%	0.9
COc1ccccc1OC(C)c1nnc(SCC(=O)Nc2c(C)n(C)n(-c3ccccc3)c2=O)n1-c1ccccc1 (configuration not stated)	-1	5	-1	?	3%	-1.7

Record cards, from the list above:
COc1ccc(S(=O)(=O)N2CCOCC2)cc1C(=O)N(C)CCOc1ccc(Cl)cc1 is listed as D2 PAM: -3; CtBP-E1A inh: .; Six1-Eya2 blk: 1; gsp ag: -18%; gsp antag: -19%; D2 ag: -2.5
CCC(=O)N1CCC1(C)C(=O)Nc1cccc2cccnc12 (configuration not stated) is listed as D2 PAM: 0; CtBP-E1A inh: 8; Six1-Eya2 blk: 9; gsp ag: .; gsp antag: .; D2 ag: -3.5

Continued:
SMILES	D2 PAM	CtBP-E1A inh	Six1-Eya2 blk	gsp ag	gsp antag	D2 ag
CCc1cccc2c(=O)c(C(=O)N3CCOCC3)c[nH]c12	-6	5	-1	1%	8%	-2.0
O=[N+]([O-])c1ccc(NN=Cc2cc(Br)ccc2O)nc1	-5	?	?	34%	-2%	0.5
O=C(CC(NC(=O)c1ccccc1)c1ccccc1)Nc1cccc2ccccc12 (configuration not stated)	12	1	1	-16%	3%	3.1
CC(C)C(=O)OCc1cn(-c2ccc(Cl)c(Cl)c2)nn1	-9	2	5	10%[15.4 µM]	10%	-3.3
Cc1onc(-c2c(Cl)cccc2Cl)c1C(=O)N1CCN(Cc2ccccc2)CC1	-4	18	19	8%[15.4 µM]	-7%	-0.6
COc1ccccc1C(=O)N1c2ccccc2Sc2ccccc21	-15	0	-14	-39%[inhibitor]	?	0.7
O=C(NCc1ccco1)c1ccccc1SCC(=O)N1CCCC1	-5	.	4	-11%	-1%	-4.5
Nc1cc(Cl)ccc1N1CCCCC1	2	.	-7	23%	4%	-6.5
CCC(C)[C@H](NC(=O)N1CC(=O)Nc2ccccc21)C(=O)N1CCC[C@H]1C(=O)O (some centres not stated)	-39	-9	-18	.	11%	-3.4
Cc1ccc(S(=O)(=O)N2CCN(C(=O)COC(=O)c3oc4ccccc4c3C)CC2)cc1	-68	6	-10	-4%[15.4 µM]	8%	-4.0
CNc1cc(CSc2ccc(Cl)cc2)nc(C)n1	-4	0	2	22%[15.4 µM]	-8%	-6.4
CCOC(=O)C(C#N)=C1CCC=C(C)C1	-8	-2	2	17%	.	-1.8
CCOc1ccc2nc(N/C(N)=N/C(=S)Nc3cccc(C)c3)nc(C)c2c1	-11	-13	-9	-33%[inhibitor]	15%	-3.4
COC(=O)c1ccc(C2c3c(oc4ccc(Cl)cc4c3=O)C(=O)N2CCN2CCOCC2)cc1 (configuration not stated)	-10	-5	-9	26%	-5%	-6.2
Brc1ccc(CNCC2CCCO2)cc1 (configuration not stated)	-57	.	1	-21%	8%	-3.2
COc1cccc(OCC(=O)NC2CCS(=O)(=O)C2)c1 (configuration not stated)	-3	7	0	-17%	10%	-9.4
CCOC(=O)C1(C)CCCN(C(=O)c2c(F)ccc(C)c2F)C1 (configuration not stated)	-3	-11	11	.	.	3.0
Cc1nnsc1C(=O)N/N=C/c1ccccc1	-3	-2	7	15%[15.4 µM]	12%	1.5
CCOC(=O)CSc1nc2c(sc3ccc([N+](=O)[O-])cc32)c(=O)n1Cc1ccco1	10	-14	-21	-6%[15.4 µM]	-2%	9.3
Nc1nc(N)c2cc(Sc3cccc(C(F)(F)F)c3)ccc2n1	-14	-3	-2	-18%	.	-3.5
COc1ccc(OC)c2c1cc(C(=O)N[C@H](C(=O)N1CCC(C(=O)O)CC1)C(C)C)n2C	1	-14	-1	10%[15.4 µM]	-6%	4.2
CN(C)c1ccc(C(=O)NCC(c2cccs2)N2CCOCC2)cc1 (configuration not stated)	-16	.	34	?	-5%	-2.5
COc1ccc([C@H]2CC(=O)C=C(C#CC(C)(C)C)C2)cc1	4	4	1	-43%[inhibitor]	-9%	-0.5
O=C(Cn1[nH]c(=O)c2ccccc2c1=O)OCC(=O)c1ccc(F)cc1	-6	0	15	23%[15.4 µM]	-9%	-3.4
CN1C(c2ccc(F)cc2)=CS/C1=C(\C#N)c1nnc2n1-c1ccccc1SC2	0	47	0	-65%[inhibitor]	-18%	-1.5
(next part)
SMILES	D2 PAM	CtBP-E1A inh	Six1-Eya2 blk	gsp ag	gsp antag	D2 ag
COc1ccc(NC(=O)CNc2cc(S(=O)(=O)N3CCOCC3)ccc2NCC2CCCO2)cc1 (configuration not stated)	1	-9	-2	2%	-17%	0.7
CC(=O)Nc1ccc(NC(=O)C(C)OC(=O)C2CCCC2)cc1 (configuration not stated)	-22	2	-1	-1%[15.4 µM]	3%	0.0
Cc1cc(C)cc(NC(=O)CC2Oc3ccc(C)cc3NC2=O)c1 (configuration not stated)	-4	.	3	-22%	1%	-5.0
CCCCNS(=O)(=O)c1ccc(NC(=O)C2c3ccccc3Oc3ccccc32)cc1	-6	-3	-2	1%	10%	-0.2
COc1ccccc1NC(=O)N1CCC(NC(=O)C2CCCCC2)CC1	-5	1	5	-3%[15.4 µM]	3%	-2.3
Cc1cccc(NC(=S)NCCc2ccccn2)c1	-5	-2	4	-1%[15.4 µM]	4%	-5.8
Cc1cc(C)cc(-n2c(=O)c3sccc3n(CC(=O)NCc3ccco3)c2=O)c1	-14	1	-1	?	5%	-0.4
COc1ccc([C@@H]2CC=C(C(=O)O)[C@H](c3ccc(F)cc3)N2S(=O)(=O)c2ccccc2C)cc1	-16	.	-6	5%	-6%	-3.0
FC(F)Oc1ccc(/C=N/NC(=S)Nc2cc(C(F)(F)F)ccc2Cl)cc1	-31	0	-4	1%[15.4 µM]	2%	3.9
O=C1C=C(c2ccc(C(=O)O)cc2)C[C@@H](c2ccc(F)cc2)C1	-3	6	2	5%	-26%	-1.2
COc1cc(C(=O)OCCCN(C)C)cc(OC)c1OC	-4	3	-2	2%[15.4 µM]	5%	-23
COc1ccccc1N1CCN(C(=O)C2c3ccccc3Oc3ccccc32)CC1	-22	-1	-10	30%	9%[15.4 µM]	-4.2
O=C(Nc1cccc(Cl)c1)c1cnn2cccnc12	-7	-2	-1	-8%	1%	-0.5
CC1CCCCC1NC(=O)Cn1ncc2ccccc21 (configuration not stated)	-6	0	10	1%	-6%	-1.4
CCCCCNC(=O)Cc1cc(=O)[nH]c(=O)[nH]1	-3	2	0	-5%	8%	-0.2
Cc1nc(Cl)nc(N(C)c2ccccc2)c1[N+](=O)[O-]	-7	-2	-16	12%	-27%	-2.2
CCOC(=O)N1CCN(S(=O)(=O)c2cc(Cl)c(OC)cc2Cl)CC1	-13	-1	4	35%	-25%	1.7
O=C(CC1SC(=O)N(c2ccccc2)C1=O)Nc1cccc2ccccc12 (configuration not stated)	-4	-1	-1	14%[15.4 µM]	6%	-0.4
COc1ccc(CN2CCN(C)CC2)cc1OCc1ccccc1	-8	7	4	-1%	-3%	-2.4
Cc1ccc(C2(C)NC(=O)N(CC(=O)Nc3ccc4c(c3)OCO4)C2=O)cc1 (configuration not stated)	1	-4	-1	16%	3%	-2.0
